# Beta apoptosis = blocks beta cell apoptosis | INS-1E cytokine-induced death, ATP luminescence, 48 h; percent of positive-control rescue, neutral wells zero | protection from apoptosis, % (test concentration not listed) | 0.8% of 300,000 active | AID 435005;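 active = all replicates at 75% or more, or half of them and the mean; inconclusive = half reach 75% but not the mean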;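 note: 0% = cytokine-treated negative control wells and 100% = positive control rescue; higher means more ATP so stronger rescue from cytokine killing; wells of about 40 µL received 100 nL stock; the first replicate is given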
# ALR H2O2 inh = human ALR oxidase inhibition via reduced H2O2 | 3.8% of 290,000 active | purified ALR, DTT oxidation, H2O2 HRP-luminol luminescence | inhibition, % (concentration not given with the values) | P55789;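 active = mean and each replicate at 75% or more; inconclusive = only one of the two met; inactive = neither met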;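 note: stock transfer was 7.5 nL into about 7.5 µL; 0% = neutral wells and 100% = wells with inactivated enzyme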
# Target sequence (P55789 whole entry, looked up): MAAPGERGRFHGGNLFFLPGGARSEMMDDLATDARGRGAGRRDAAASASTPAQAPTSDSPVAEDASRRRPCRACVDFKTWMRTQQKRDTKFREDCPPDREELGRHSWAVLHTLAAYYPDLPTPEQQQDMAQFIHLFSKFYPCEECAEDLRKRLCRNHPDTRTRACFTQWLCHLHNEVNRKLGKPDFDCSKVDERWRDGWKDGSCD
# Calb FLC = C. albicans growth modulation with fluconazole; C. albicans CaCi-2 (fluconazole-resistant clinical isolate) + fluconazole, Alamar Blue growth, 48 h; growth inhibition, % (concentration not given with the values); 0.57% of 300,000 active;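 active = most replicates above 75%; inconclusive = exactly half above 75%; inactive = most below 75%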;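 note: all wells also contain fluconazole at 8 µg/ml as a sub-toxic cotreatment; 0% = median of DMSO wells and 100% = median of geldanamycin control wells; wells of about 8 µL received 7.5 nL stock; the first replicate is given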
# T cruzi inh = T. cruzi replication inhibition; T. cruzi beta-gal in NIH3T3, luminescence, 90 h; inhibition, % (test concentration not listed); 1.4% of 300,000 active;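 active = mean inhibition across valid replicates above about 55%, limit read from the data; inconclusive = mean below that limit but half or more replicates reach it; inactive = mean below it, under half of replicates reach it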;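 note: signal also drops with host cell toxicity which is not excluded here; 0% = plate median of DMSO wells and 100% = zero luminescence signal; higher percent means less beta-gal luminescence so fewer parasites; stock transfer was 50 nL into about 50 µL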
# MLL AF4-AF9 inh = MLL-AF4/AF9 protein interaction inhibition. AlphaScreen, biotin-AF4 peptide binding to FLAG-AF9. inhibition, % at 10 µM. AID 651704. 0.47% of 350,000 active. P42568;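 active = every replicate reaching a set inhibition limit, whatever the replicate mean, cut at about 25% in these data; inconclusive = mean inhibition reaches that limit but some replicates miss it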;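 note: 0% = plate neutral control median and 100% = total signal loss; the record names both 10 and 1 µM as test concentration; the first replicate is given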
# Target sequence (P42568 whole entry, looked up): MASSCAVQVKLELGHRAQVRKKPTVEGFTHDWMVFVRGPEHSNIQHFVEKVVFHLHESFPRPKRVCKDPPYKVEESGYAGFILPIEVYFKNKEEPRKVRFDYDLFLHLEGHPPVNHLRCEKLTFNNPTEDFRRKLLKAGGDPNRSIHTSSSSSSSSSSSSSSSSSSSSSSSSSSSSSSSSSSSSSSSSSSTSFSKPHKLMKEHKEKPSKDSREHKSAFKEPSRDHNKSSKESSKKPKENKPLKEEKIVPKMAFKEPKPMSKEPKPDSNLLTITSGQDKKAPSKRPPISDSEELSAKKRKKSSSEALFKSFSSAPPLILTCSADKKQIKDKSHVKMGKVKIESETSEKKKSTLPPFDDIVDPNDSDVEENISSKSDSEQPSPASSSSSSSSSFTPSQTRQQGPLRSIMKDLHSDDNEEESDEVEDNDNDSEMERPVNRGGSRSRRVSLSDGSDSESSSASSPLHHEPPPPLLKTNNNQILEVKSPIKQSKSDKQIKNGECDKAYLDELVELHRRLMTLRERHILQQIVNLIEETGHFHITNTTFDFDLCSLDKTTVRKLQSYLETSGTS
# FGF22 binding = shifts melting point of recombinant human FGF22 | recombinant FGF22 thermal shift, SYPRO orange fluorescence; percent of sucrose octasulfate shift, DMSO zero | calls only at 9.99 µM | 1.5% of 340,000 active | AID 651658;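 active = melting point raised past a set limit in the mean and every replicate; inconclusive = no clear call; three in four hits are not shown here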
# Target sequence (Q9HCT0 whole entry, looked up): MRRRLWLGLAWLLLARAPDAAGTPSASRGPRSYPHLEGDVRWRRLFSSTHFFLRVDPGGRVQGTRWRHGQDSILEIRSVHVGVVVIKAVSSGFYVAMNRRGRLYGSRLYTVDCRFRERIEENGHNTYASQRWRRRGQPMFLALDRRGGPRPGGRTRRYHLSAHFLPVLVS
# RanGTP-Imp inh = disruptors of Ran-importin-beta complex formation – biochemical, FRET, CFP-Ran, YFP-importin-beta, homogeneous, primary screen. cell-free CFP-Ran/YFP-importin-beta FRET ratio. inhibition, % (no concentration beside the values). 1.1% of 300,000 active;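 active = most replicates above 15%; inconclusive = exactly half above 15%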;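 note: 0% = DMSO wells and 100% = Ran loaded with GDP instead of GTP; wells of about 40 µL received 100 nL stock; the first replicate is given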
# Ecoli rRNA inh = inhibitors of bacterial rRNA selective over humanized ribosomes; 1.6% of 350,000 active; GFP signal change (wild-type ribosome), % (concentration not given with the values); E. coli WT GFP vs humanized-ribosome RFP mutants, fluorescence, 24 h; active compounds read low; DMSO median 0, no signal -100; AID 720706;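 active = significant combined selectivity score with lowered wild-type GFP, culture density cut under 30%, mutant RFP and density less affected; inactive = any of these conditions unmet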; note: one replicate is shown; some compounds called inactive have numbers as strong as hits
# Ecoli rRNA inh OD600 = second read-out of Ecoli rRNA inh, no call of its own (marks repeat the call); OD600 change, %; measured here: OD600 growth;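 optical density of the mix in the first replicate; 0 = DMSO median and -100 = no signal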
# Ecoli rRNA inh RFP = further read-out of Ecoli rRNA inh, marked with its call; RFP signal change, %; measured here: RFP humanized mutant strains;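 first replicate; 0 = DMSO median and -100 = no signal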
# An asterisk follows results filed as active; i = inactive; ? = inconclusive; . = not tested or not shown; & = joins results of further samples. The list is partial; the hit share may differ from the screen's.
SMILES,Beta apoptosis,ALR H2O2 inh,Calb FLC,T cruzi inh,MLL AF4-AF9 inh,FGF22 binding,RanGTP-Imp inh,Ecoli rRNA inh,Ecoli rRNA inh OD600,Ecoli rRNA inh RFP
CCOc1ccccc1NS(=O)(=O)c1cccc2nsnc12,-12,-4,?,-8,.,.,-3.7,.,.,.
O=C(Nc1ccccc1)N1CCC(C(=O)N2CCN(S(=O)(=O)c3cccc(F)c3)CC2)CC1,1,-9,-9,-10,.,.,0.3,.,.,.
CCc1ccc(C(=O)NNC(=O)CCN2CCN(Cc3ccccc3)CC2)cc1,2,-10,2,-19,-1.8,i,-1.8,2,6,1.4
COCC(C)NC(=O)c1cc2c(ccc3ccccc32)oc1=O (stereo not drawn),-4,-25,-2,4,2.1,i,29*,-28,-19,-7.1
COc1cccc(/C=N\NC(C)=O)c1OC/C=C/c1ccccc1,4,-9,41,6,-2.9,i,-1.4,3,1,-0.1
CSCC(=O)N1CCCC(CO)(CCCc2ccccc2)C1 (stereo not drawn),2,.,-5,-14,0.1,i,4.0,-17,-20,-3.0
O=C(Nc1cc(Cl)ccc1F)c1ccc(-n2cncn2)c([N+](=O)[O-])c1,-1,.,2,-4,4.1,i,-3.3,-3,4,-4.6
COc1ccc(C(=O)NCCCOc2cccnc2)cc1OC1CCN(C(C)=O)CC1,15,3,-6,-16,1.0,i,2.1,4,-3,-0.8
CC(=O)c1ccc(OCC(=O)NCC(c2ccco2)N2CCCCC2)cc1 (stereo not drawn),-6,-11,-20,-3,-0.1,i,-3.1,21,13,4.8
CCOC(=O)Oc1ccc(C(=O)OCCCN(C)C)cc1OC,-2,17,-16,38,1.2,i,5.2,4,7,1.2
CC1CCCC(C)N1C(=O)COC(=O)c1ccc(F)c(S(=O)(=O)N2CCOCC2)c1 (stereo not drawn),.,-1,6,-3,-0.6,i,-1.9,3,-3,-1.8
O=C(CSc1nnc(-c2ccc(Cl)cc2)n1-c1ccccc1)N/N=C/c1ccccc1C(=O)O,1,-8,16,-16,-0.4,.,1.0,-1,-5,0.7
Cc1cc(C)c(S(=O)(=O)N2CCN(c3ccccc3)CC2)c(C)c1,.,5,5,2,-0.9,i,1.6,-2,-9,-1.8
Cc1ccc(/C=N\NC(=O)CC(=O)NCCc2ccccc2)cc1,-5,1,7,-3,-3.5,i,-2.0,16,9,-0.2
Cc1ccc(NC(=O)C2CC(=O)N(C(C)C)C2)cc1C (stereo not drawn),-3,-7,-6,-19,-4.0,i,-0.5,19,18,2.5
Cc1ccc(S(=O)(=O)Nc2ccccc2C(=O)N2CCCCC2C)c(C)c1NS(C)(=O)=O (stereo not drawn),-5,-1,-2,-11,2.2,i,-2.9,-7,-16,-2.3
O=C(N/N=C/c1sc(=O)n(-c2ccccc2)c1Cl)c1ccncc1,-17,98*,-17,-7,-3.5,i,1.1,0,0,-1.9
COc1ccc(S(=O)(=O)N2CCN(C)CC2)cc1Br,.,-17,-6,-16,.,.,5.4,.,.,.
CCCN(Cc1cc2ccc(C)cc2[nH]c1=O)C(=O)c1cccnc1,-2,-7,-3,-5,.,.,-8.8,.,.,.
COc1cccc(CNC(=O)Cn2ccc3cc(S(=O)(=O)N4CCCC4)ccc32)c1,-7,-2,-4,-14,0.0,i,4.2,5,-1,-3.9
COc1ccc(/C=N/NC(=O)c2ccc3c(c2)OCCO3)c(OC)c1,.,-10,-12,-17,-0.9,i,1.3,11,14,2.1
COc1ccc(C(CC(=O)Nc2cc(C)ccn2)N2Cc3ccccc3C2=O)cc1 (stereo not drawn),0,-2,-2,4,3.3,i,4.0,-12,-23,7.0
CCn1nnnc1SCC(=O)Nc1nc2ccccc2s1,1,-1,-1,-9,-7.2,i,-0.6,11,8,1.6
O=C(Nc1ccc(Cl)cc1)c1cc2c(cc1O)[nH]c1ccccc12,39,-2,-3,-14,-2.8,i,-13,-58,-77,-22
Nc1nnc(SCC(=O)N2CCCCC2)s1,-2,.,17,-3,-2.4,i,-1.0,8,2,2.0

# Continuation:
SMILES,Beta apoptosis,ALR H2O2 inh,Calb FLC,T cruzi inh,MLL AF4-AF9 inh,FGF22 binding,RanGTP-Imp inh,Ecoli rRNA inh,Ecoli rRNA inh OD600,Ecoli rRNA inh RFP
CCOC(=O)N1c2ccccc2C=CC1OCC (stereo not drawn),-3,6,-4,0,.,.,-1.8,.,.,.
COc1ccc(OC)c2[nH]c(=O)c(CCNC(=O)C(=O)c3c[nH]c4ccccc34)cc12,-3,-19,1,2,-2.4,i,4.3,1,6,4.7
O=C1NN(c2cccc(Br)c2)C(=O)/C1=C\c1ccc(N2CCOCC2)cc1,1,-7,-9,-23,.,.,6.1,.,.,.
O=S(=O)(CC(CN1CCCCC1)N1CCCCC1)c1ccccc1 (stereo not drawn),-3,2,-28,-15,0.4,i,?,0,0,-2.9
O=c1c(Cl)cc(Cl)nn1-c1ccccc1,-6,98*,-1,11,-4.3,i,-0.1,-6,-10,-11
COc1cccc(NC(=O)c2ccccc2NC(=O)c2ccncc2)c1,3,-3,.,.,-3.7,i,.,-8,-7,1.7
O=c1[nH]c(=O)n(C2C[C@H](O)[C@@H](CO)O2)cc1C(F)(F)F (stereo partly drawn),7,-26,.,.,-4.2,i,.,.,.,.
CC(NC(=O)COc1ccccc1)C(=O)OCC(=O)c1cc2ccccc2o1 (stereo not drawn),-5,26,0,-4,.,.,2.4,.,.,.
CCOC(=O)N1CCN(c2c(N3CCN(c4ccc(F)cc4)CC3)c(=O)c2=O)CC1,5,23,-6,-1,5.7,i,-1.5,2,-3,-2.9
Cc1nc(N2CCN(C)CC2)c2c(C)c(C(=O)Nc3ccc(C)c(F)c3)sc2n1,-11,96*,-7,38,.,.,?,.,.,.
Cc1cc(C)n2nc(SCc3nnc(-c4ccccc4Br)o3)nc2n1,-2,-1,-9,5,-2.9,i,5.2,13,-3,4.1
O=C(NCc1ccccc1)Nc1cccn(Cc2ccccc2F)c1=O,.,-12,-15,-4,.,.,-2.8,.,.,.
O=S1(=O)NC(=NCC(c2ccco2)N2CCCCC2)c2ccccc21 (stereo not drawn),-8,-2,0,0,-1.0,i,-6.5,8,-1,-2.4
O=C(Nc1cc(Cl)ccc1O)c1snnc1-c1ccccc1,37,24,61,4,.,.,0.9,.,.,.
CCCCN1C(=O)C(=O)N(CC(=O)Nc2ccc(C(N)=O)cc2)C1=O,-3,1,.,.,-1.8,i,.,20,11,5.1
Cc1nn(CC(=O)N2CCc3ccccc3C2)c(C)c1[N+](=O)[O-],-2,-4,0,6,-0.5,i,-1.3,3,0,-12
CCOC(=O)c1cc(NC(=O)c2ccccc2)c(=O)oc1-c1ccccc1,-5,.,-3,-6,.,.,-0.7,.,.,.
CCOc1ccc(NC(=O)N(C2CCCCCC2)C2CCN(C(C)=O)CC2)cc1,4,-60,-4,9,.,.,-2.9,.,.,.
O=C(CC1(O)C(=O)Nc2ccccc21)c1ccccc1O (stereo not drawn),-6,1,-3,-7,3.7,.,-1.0,.,.,.
O=C(NC(C(=O)c1ccccc1)N1CCOCC1)c1ccccc1 (stereo not drawn),-1,-7,1,-11,.,.,2.4,.,.,.
O=C(c1ccc(NS(=O)(=O)c2ccccc2)cc1)N1CCCCCC1,1,-5,-29,11,4.1,i,8.7,9,0,2.3
CC(Sc1ccccc1)C(=O)Nc1cccc(N(C)S(C)(=O)=O)c1 (stereo not drawn),1,-12,-7,3,.,.,-2.4,.,.,.
Cc1ccc(NC(=O)C2CCN(S(=O)(=O)c3ccc4c(c3)CCCC(=O)N4)CC2)c(Br)c1,6,-1,-3,-4,-1.4,i,-0.8,-1,11,-4.8
CCO[C@@H]1OC(C(=O)N2CCOCC2)=C[C@H](C)[C@H]1CCCO,0,-8,-6,-10,5.9,i,0.3,3,11,11
Nc1nc(N)nc(-c2cc([N+](=O)[O-])ccc2O)n1,-4,-9,.,.,3.0,i,.,3,17,-0.3

# Remaining list, next part:
SMILES,Beta apoptosis,ALR H2O2 inh,Calb FLC,T cruzi inh,MLL AF4-AF9 inh,FGF22 binding,RanGTP-Imp inh,Ecoli rRNA inh,Ecoli rRNA inh OD600,Ecoli rRNA inh RFP
Cc1cc(=O)oc2cc(OC(C)C(=O)Nc3nccs3)ccc12 (stereo not drawn),-5,-17,-2,-6,.,.,-1.8,.,.,.
CC(C)Sc1nnc([C@H](Cc2ccccc2)NC(=O)OC(C)(C)C)o1,-5,-33,-19,25,-2.8,i,-6.5,2,-7,0.9
COc1ccc(S(=O)(=O)Nc2ncccc2C)c2ccccc12,-5,-4,13,0,1.4,i,2.3,-16,-17,-4.6
COCCn1c(C)cc(C(=O)COC(=O)c2[nH]c(C)c(C(C)=O)c2C)c1C,8,.,.,.,0.0,i,.,7,14,2.8
O=C(Nc1ccccc1)C1=C[C@H](c2ccc(Br)cc2)C[C@H](OCc2ccc(CO)cc2)O1,-1,-6,21,29,-1.3&0.0,i,2.2,-4,5,6.3
O=C(Cn1cc(C(F)(F)F)cc(Cl)c1=O)Nc1cccc(Cl)c1,-3,-4,-1,-6,0.3,i,-5.3,6,1,-1.3
Cc1cccc(OCc2nnc(N)s2)c1,-2,-10,48,-11,.,.,11,2,3,-0.1
COc1cc(C(=O)NCc2cccc3ccccc23)ccc1OCc1ccccc1,3,-6,10,34,.,.,5.7,.,.,.
Cc1cc(C)nc(NS(=O)(=O)c2ccc(NS(=O)(=O)c3ccsc3)cc2)n1,-2,-5,8,11,1.6,i,6.3,9,-5,0.3
CCOc1ccc(N2C(=O)CC(n3ccc(C)n3)C2=O)cc1 (stereo not drawn),-3,-18,-1,-8,.,.,2.1,.,.,.
O=C(CN1C(=O)NC2(CCCCC2)C1=O)NCc1ccc2c(c1)OCO2,-4,-2,20,1,-1.6,i,-0.1,12,6,2.1
COc1cc(C(=O)N2CCN(C/C=C/c3ccccc3)CC2)cc(OC)c1C,4,.,-6,30,7.5,i,2.0,-24,-18,11
CCOC(=O)C1=NN(C(=O)COc2ccccc2)C(O)(c2ccc(Br)cc2)C1 (stereo not drawn),-6,16,0,-10,-2.5,i,5.1,-3,9,5.2
Cc1ccc(N2C(=O)CC3(CCCC3)CC2=O)cc1,1,3,-6,7,-1.8,i,0.5,13,6,-1.0
C[n+]1cc(C(=O)N2CCCCC2)ccc1/C=C/c1c[nH]c2ccccc12,6,5,-1,-19,-2.2,i,-133,71,17,20
CN(C(=O)COC(=O)CSc1ccc(C(N)=O)cc1[N+](=O)[O-])C1CCCCC1,1,.,1,-4,1.7,i,-4.6,-16*,13*,2.3*
c1ccc(Oc2cnc3ccccc3n2)cc1,-3,-7,-5,-11,.,.,-0.9,.,.,.
O=C(Nc1nc2c(ccc3ccccc32)s1)c1cc([N+](=O)[O-])ccc1N1CCOCC1,6,-7,-1,26,.,.,5.4,.,.,.
Cc1cc(C)nc(N2CCC(C(=O)N3CCN(c4cc(Cl)ccc4C)CC3)CC2)n1,10,-6,-4,35,.,.,-3.0,.,.,.

# Limited to Calb FLC, MLL AF4-AF9 inh and Beta apoptosis, for 2 of the compounds above:
compound	Calb FLC	MLL AF4-AF9 inh	Beta apoptosis
CCn1nnnc1SCC(=O)Nc1nc2ccccc2s1	-1	-7.2	1
O=C(Nc1ccc(Cl)cc1)c1cc2c(cc1O)[nH]c1ccccc12	-3	-2.8	39
